# Sfp PPTase inh = qHTS Assay for Inhibitors of Bacillus subtilis Sfp phosphopantetheinyl transferase (PPTase) | 4'-phosphopantetheinyl transferase ffp (Bacillus subtilis), Q9F4F7 | Biochemical Sfp PPTase activity, qHTS | Potency, µM, for inactives: max response, negative = inhibition, hits mostly inhibitors | 310,000 compounds, 3.5% hits | AID 1490, 2009; active = well fitted inhibition curve with a large enough effect; inconclusive = small, poorly fitted or top-dose-only effect, or another doubt; inactive = no such curve, though single readings can be large or run the other way;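 also: the enzyme is Sfp with the accession as filed and its product quenches rhodamine fluorescence; potency is read from the fitted curve at half-maximal effect; 0% = enzyme reaction without inhibitor and -100% = no enzyme wells; top concentration of the series not given in the record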
#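 Buffer: 50 mM Hepes-Na pH 7.6, 10 mM MgCl2, 0.01% Nonidet P-40, 0.01% BSA. Enzyme 15 nM, pre-exposed to compound 15 min; substrates then added and fluorescence change tracked over 30 min.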
# gsp ag = qHTS for Agonist of gsp, the Etiologic Mutation Responsible for Fibrous Dysplasia/McCune-Albright Syndrome: qHTS; AID 624287, 2012; Potency, µM (titrated, usually from 76.9 µM), for the others: top-dose activation (cAMP increase), actives largely listed as activators; 340,000 compounds, 0.13% hits; gsp mutant cells, cAMP HTRF, 30 min; control for the full effect not named in the record; active = well fitted activation curve with a large enough effect; inconclusive = small, poorly fitted or top-dose-only effect, or another doubt; inactive = no such curve, though single readings can be large or run the other way; cell line not stated here;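 also: phosphodiesterase inhibitor Ro 20-1724 added with compounds to block cAMP breakdown; potency is read from the fitted curve at half-maximal effect; nearly all actives have a fitted effect of over 60% in size; about a fifth of the inactives were tested at one dose only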
#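 Cells stably selected in G418 were plated at 2000/well, grown 16-24 hr, then given compounds in DMSO with the PDE inhibitor […] (300 uM solution added) for 30 min at 37C; cAMP was read by HTRF.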
# D2 potentiator = Beta-Arrestin HTS for Positive Allosteric Modulators of the Human D2 Dopamine Receptor: Potentiators | potentiation, % (concentration not given with the values) | DiscoveRx D2 beta-arrestin cells, luminescence, 90 min; 100% = 57 uM dopamine signal | AID 624464, 2012 | D(2) dopamine receptor (Homo sapiens), P14416 | 360,000 compounds, 0.23% hits; active = potentiation of 50% or more; inconclusive = 30% to 50%; inactive = 30% or less;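 also: tested on top of an EC20 dose of dopamine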
# Target sequence (P14416 whole entry, looked up): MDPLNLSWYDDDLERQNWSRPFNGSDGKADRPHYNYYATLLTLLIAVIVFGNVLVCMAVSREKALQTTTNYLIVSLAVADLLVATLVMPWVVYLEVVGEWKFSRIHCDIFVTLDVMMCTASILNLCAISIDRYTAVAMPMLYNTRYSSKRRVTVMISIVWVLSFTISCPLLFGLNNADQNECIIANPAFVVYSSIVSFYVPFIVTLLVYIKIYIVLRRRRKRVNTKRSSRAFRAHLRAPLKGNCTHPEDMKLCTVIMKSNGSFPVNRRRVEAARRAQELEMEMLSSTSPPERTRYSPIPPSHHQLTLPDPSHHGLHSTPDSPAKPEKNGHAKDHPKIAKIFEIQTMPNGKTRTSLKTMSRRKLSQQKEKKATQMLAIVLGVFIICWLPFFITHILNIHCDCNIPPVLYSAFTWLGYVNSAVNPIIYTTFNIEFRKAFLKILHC
#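 D2 cells co-treated with compound plus 50 nM dopamine (EC20) for 90 min at 37 deg C to detect potentiation. Beta-arrestin recruitment was read as enzyme-fragment luminescence after 1 h at ambient temperature. Full response was set by 57 uM dopamine.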
# gsp antagonist = qHTS for Antagonists of gsp, the Etiologic Mutation Responsible for Fibrous Dysplasia/McCune-Albright Syndrome: qHTS; Potency, µM (doses to about 76.9 µM), for inactives: at the highest dose activity change, negative = inhibition, actives largely listed as inhibitors; 340,000 compounds, 0.4% hits; AID 624288, 2012; gsp-mutant cells, cAMP HTRF, 30 min; control for the full effect not named in the record; active = falling curve of any shape with a large fitted effect; inconclusive = falling curve, mostly with a smaller effect; inactive = flat or rising curve; cell line not stated here;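 also: intracellular cAMP measured with PDE inhibitor Ro 20-1724 present during compound exposure; potency is read from the fitted curve at half-maximal effect; % is scaled to controls: 0 for no effect and ±100 for the full control effect; nearly all actives have a fitted effect of over 65% in size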
#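 HTRF cAMP measurement after 30 min RT detection following 30 min, 37C compound treatment alongside […] (added as 300 uM solution) in G418-selected cells seeded at 2000/well and grown 16–24 h.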
# ClpP mod = qHTS Assay for Activators of ClpP. ATP-dependent Clp protease proteolytic subunit (Bacillus subtilis (strain 168)), P80244. purified B. subtilis ClpP, FRET peptide cleavage, 20 min. Potency, µM (titrated, usually from 57.5 µM), inactives show top-dose activity change, negative = active. 340,000 compounds, 1.9% hits. AID 651965, 2013; active = well fitted falling curve with a large enough effect; inconclusive = small, poorly fitted or top-dose-only effect; inactive = no such curve, though single readings can be large or run the other way; also: potency is read from the fitted curve at half-maximal effect; the source files actives as falling curves though it sought activators and does not explain the sign; nearly all actives have a fitted effect of over 65% in size; many hits overshoot -100%
# Target sequence (P80244 whole entry, looked up): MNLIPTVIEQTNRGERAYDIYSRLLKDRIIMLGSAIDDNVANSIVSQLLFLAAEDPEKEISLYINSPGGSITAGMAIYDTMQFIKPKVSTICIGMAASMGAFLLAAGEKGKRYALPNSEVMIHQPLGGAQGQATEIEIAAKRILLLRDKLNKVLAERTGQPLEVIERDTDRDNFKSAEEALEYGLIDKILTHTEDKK
#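 Purified B. subtilis ClpP, 10 microg/mL final in Tris/HCl pH8 with KCl, BSA, glycerol and Tween-20, cleaved an Abz/nitrotyrosine-quenched decapeptide. Fluorescence (ex 320, em 430) was read at 0 and 20 min at room temperature. Delta was normalized to 5.8 microM ADEP and DMSO/no-enzyme controls.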
# TRPV1 potentiator = HTS Assay for Compounds that Act as Potentiators of the Vanilloid Receptor 1; Transient receptor potential cation channel subfamily V member 1 (Homo sapiens), Q8NER1; TRPV1-expressing cells, Fluo-8 calcium influx, capsaicin EC20 potentiation; host cell line not named in the record; control for the full effect not named in the record; potentiation, % at 8.33 µM; 320,000 compounds, 0.02% hits; active means potentiation above 80%; inconclusive means 30% to 80%; inactive means below 30%; also: 0% is about no effect
#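 Fluo-8 calcium influx in TRPV1-expressing cells, kinetic read (ex 480/em 520 nm). Compound added and read 3 min for agonist activity, followed by capsaicin at EC20 final and 2 min further read for enhancement.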
# Menin-MLL FL inh = qHTS Assay for Inhibitors Targeting the Menin-MLL Interaction in MLL Related Leukemias: Competition With Fluorescein Labeled MLL-derived Peptide; Fluorescence polarization, fluorescein-MLL peptide displacement from menin; FP activity change, % at 61.4 µM; 290,000 tested, under 10 active; AID 1766, 2009; inconclusive = falling polarisation curve, or a change in total fluorescence; inactive = total fluorescence flat and polarisation flat or rising; no compound was filed as active; the % refers to the polarisation; negative = inhibition;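 also: % of control where 0% means no effect; inhibitors lower the polarisation; unlabelled MLL peptide was the positive control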
# * = called active by the depositor; ? = inconclusive; nt = not tested or not shown; [ ] = dose if it differs, or a comment.
SMILES,Sfp PPTase inh,gsp ag,D2 potentiator,gsp antagonist,ClpP mod,TRPV1 potentiator,Menin-MLL FL inh
COc1ccc(OC)c2sc(Cl)nc12,-19%,23%,-12,7%,-1.4%,-14,-2.1
O=C(c1ccncc1)c1ccc([N+](=O)[O-])cc1,13%,2%,6,9%,nt,4,-3.5
Cc1ccc(OCC(O)Cn2c(NCCc3ccccc3)nc3c2c(=O)[nH]c(=O)n3C)cc1 (stereo unspecified),8%,-39%[inhibitor],-10,-3%,-0.1%,-6,2.3
O=C(CN1CCOCC1)Nc1ccccc1C(=O)O,-1%,-24%,-12,2%,-2.2%,-10,0.9
CCOc1ccc(N(CC(=O)NC2CCCCC2)C(=O)CCC(=O)Nc2cc(C)ccn2)cc1,7%,13%[15.4 µM],13,0%,-3.0%,27,4.7
O=C1C=C(c2cccc(CO)c2)C[C@@H](c2ccc3c(c2)OCO3)C1,nt,-11%,2,3%,0.6%,-16,nt
O=C(CCCc1nc2ccccc2s1)NCc1ccc(F)cc1,11%,0%[15.4 µM],-6,-2%,-2.0%,-16,3.2
COc1ccc(CN2C(=O)c3ccccc3C2=O)cc1C(=O)N(C)CC(=O)Nc1ccc(F)cc1,nt,9%,-17,-13%,0.2%,-5,nt
CCC(=O)Nc1nnc(S(=O)(=O)N(C)c2cc(C)cc(C)c2)s1,13%,0%,-11,3%,0.1%,-9,-14
O=S(=O)(NCc1cccnc1)c1ccc(Br)s1,12%,22%,0,-4%,2.0%,7,4.3
CCC(CC)C(=O)NCCCN1CCOCC1,-3%,-2%,3,-3%,-2.0%,-2,9.1
S=C(NCCc1ccccc1)NCC(c1ccco1)N1CCCCC1 (stereo unspecified),-22%,25%,-14,-3%,nt,-10,-0.5
CCOC(=O)CC(=O)CSc1ncnc2c1nnn2-c1ccccc1,-14%,3%,-2,-5%,-6.2%,-4,nt
COc1cc(C(=S)N2CCOCC2)cc(OC)c1OS(=O)(=O)c1ccc(Cl)cc1,45µM*,-57%[inhibitor],-21,-13%,-1.9%,0,1.8
O=C(NCc1cccnc1)C1CCCN(S(=O)(=O)c2ccc(Br)cc2)C1 (stereo unspecified),16%,-7%,-31,-5%,3.0%,-6,-0.5
Cc1cccc(NCCC(=O)c2ccc([N+](=O)[O-])cc2)c1C,-4%,-5%,0,0%,3.4%,-10,4.0
Cc1ccc(-c2cnn(-c3ccccc3)c2N)cc1,14%,?,-13,6%,-3.8%,-8,-0.4
O=C(CCN1C(=O)C2C3C=CC(C3)C2C1=O)Nc1c(F)cccc1F (stereo unspecified),8%,-73%[inhibitor],10,5%,-7.0%,-5,-0.5
O=C(CN1CCCC1)N1CCN(c2ccccc2)CC1,-1%,?,-11,-2%,0.1%,9,-0.1
Cc1ccc(S(=O)(=O)CCC(=O)Nc2nc(-c3ccccn3)cs2)cc1,nt,?,1,2%,-1.2%,-28,nt
CCCNc1nc(C)cc(-c2cc(C(=O)Nc3ccccc3)on2)n1,nt,-9%,-5,-9%,-19%,nt,nt
CCN(CC)C(=O)CSc1nnc(CNc2ccc(F)cc2)n1-c1ccccc1,23%,2%,4,-8%,-1.0%,3,0.1
COc1ccc(CN(C)S(=O)(=O)c2nnc(NC(=O)c3cccc(F)c3)s2)cc1OC,11%,?,2,-26%,-3.7%,11,-1.4
COc1ccc(N(CC(=O)NCCc2ccccc2)C(=O)CCC(=O)Nc2nccs2)c(OC)c1,5%,17%[15.4 µM],-5,nt,nt,-4,-4.1
O=C(c1ccc(CS(=O)Cc2ccc(Cl)cc2)o1)N1CCN(C2CCCCC2)CC1 (stereo unspecified),nt,13%,-15,nt,-1.0%,nt,nt
O=C(C1CCN(S(=O)(=O)c2ccccc2)CC1)N1CCN(c2ccccc2F)CC1,nt,6%,-3,-10%,-0.3%,-5,nt
c1coc(CNC2CCCCCCC2)c1,-8%,3%,21,10%,-1.5%,4,-5.8
COc1ccc(CN2CCN(Cc3ccc(C)cc3)C(CCO)C2)cc1OC (stereo unspecified),7%,3%,-22,1%,0.2%,8,1.8
CS(=O)(=O)c1ccc2nc(NC(=O)C3CCCCC3)sc2c1,2%,-19%,-12,-3%,-0.4%,?,1.6
Cc1c(O)c2ccccc2oc1=O,6%,-3%[15.4 µM],-2,7%,nt,3,2.6
CCOC(=O)CN1C(=O)C(=O)N(Cc2c(Cl)cccc2Cl)C1=O,17%,-22%,-1,11%,nt,-7,0.1
COc1cc(OC)cc(C(=O)N[C@H](C(=O)Nc2nc(-c3cc(OC)ccc3OC)cs2)C(C)C)c1,22%,8%[15.4 µM],-9,-18%,nt,1,0.5
O=C(Nc1nc2ccc(F)cc2s1)c1ccccn1,10%,-13%,-13,-11%,nt,-1,1.5
CN(C)S(=O)(=O)c1ccc(N2CCCC2)c(C(=O)Nc2nc(-c3ccc(F)c(F)c3)cs2)c1,-2%,-5%,-18,16%,-11%,17,0.8
Cc1ccc(N/C(N)=N/c2nc(CSc3ccc(C)cc3)cc(=O)[nH]2)cc1,10%,-42%[inhibitor],-14,-8%,0.8%,6,0.9
CC1CCC(C(C)C)C(OC(=O)Cn2nnc3c(cnn3-c3ccccc3)c2=O)C1 (stereo unspecified),20%,3%,-9,10%,-0.9%,3,-2.1
CCC(C)[C@H](NC(=O)NCc1ccc(S(N)(=O)=O)cc1)C(=O)O (stereo partly specified),9%,0%,-2,-1%,1.7%,-2,1.4
CCSc1nnc(NC(=O)C2CCCCC2C(=O)O)s1 (stereo unspecified),-3%,7%,7,-7%,-1.5%,-3,2.3
Cc1cccc(NC(=O)c2cccnc2Cl)n1,11%,15%,-4,8%,-18%,-5,2.2
COC(=O)COn1c(-n2nc(C)cc2C)nc2ccccc2c1=O,7%,19%,-1,11%,0.6%,6,3.2
COc1ccc(Oc2cnc3ccccc3n2)cc1,4%,20%[15.4 µM],-2,5%,nt,-11,-4.9
O=C1[C@H]2[C@H](ON3CCCC[C@H]23)C(=O)N1c1ccc(Cl)cc1,-10%,-1%[15.4 µM],-5,-7%,nt,5,1.8
CCOC(=O)C1(CCSC)NC(c2ccco2)C2C(=O)N(CC)C(=O)C21 (stereo unspecified),-3%,0%,-1,0%,-3.2%,-2,-1.0
CCC(=O)NC(=S)Nc1ccccc1C(=O)OC,0%,3%,-11,1%,0.1%,-6,3.1
COc1ccc(-c2c3c([nH]c(=S)c2C#N)CCC3)cc1,22µM*,4.5µM*,-2,17%,-23%,11,4.5
O=C(CC1NC2CCCCC2NC1=O)Nc1ccc2c(c1)OCO2 (stereo unspecified),11%,3%,-7,4%,0.3%,?,5.3
O=C(Cc1cccs1)Nc1cc(S(=O)(=O)N2CCCCC2)ccc1Cl,nt,6%,0,-17%,-0.6%,2,nt
Cc1nnc(SCc2cn3ccsc3n2)n(N)c1=O,-7%,49%,4,5%,-1.5%,-12,0.9
CCC1Nc2ncnc(N3CCN(c4ccccc4)CC3)c2N(Cc2ccc(OC)cc2)C1=O (stereo unspecified),nt,nt,-44,-6%,-2.8%,-14,nt
O=[N+]([O-])c1ccc(-n2nnnc2-c2ccccc2)cc1,16%,6%,3,-11%,2.4%,9,0.4
CCOc1ccc(N=C2SCCCN2C(=O)c2c(CC)noc2C)cc1,-6%,-23%,-16,6%,0.5%,-8,nt
C[C@H]1NS(=O)(=O)c2ccc(Br)cc2O[C@H]1c1ccccc1,nt,nt,5,1%,1.5%,nt,nt
COc1ccccc1N(CC(=O)N/N=C/c1ccccc1C(=O)O)S(C)(=O)=O,15%,-10%[15.4 µM],-3,-4%,nt,0,-4.4
Cc1ccccc1OCCCCCNCCO,7%,-1%,-9,2%,1.2%,-18,1.6
O=C(NCc1ccco1)c1cc(-c2ccco2)on1,12%,-23%,-7,0%,-16%,5,2.9
COc1ccc(NC(=O)N(C)C[C@H]2Oc3ccc(NS(=O)(=O)c4cn(C)cn4)cc3C(=O)N([C@H](C)CO)C[C@@H]2C)cc1,nt,nt,-7,3%,-3.0%,nt,nt
c1ccc(C(c2nnnn2Cc2ccco2)N2CCN(c3nc4ccccc4s3)CC2)cc1 (stereo unspecified),16%,-9%,26,-26%,-1.7%,-23,0.4
COc1cc2oc(=O)cc(-c3ccc(-c4ccc(O)cc4)cc3)c2c(OC)c1OC,-24%,nt,nt,?,-15%,nt,2.5
COc1ccc(C(=O)OCC(N)=O)cc1[N+](=O)[O-],12%,8%[15.4 µM],-12,-3%,28µM*,9,nt
Cc1cc(=O)oc2ccc(OCC(=O)N3CCC(C)CC3)cc12,10%,-37%[inhibitor],1,0%,?,7,0.8
# More results follow.
SMILES,Sfp PPTase inh,gsp ag,D2 potentiator,gsp antagonist,ClpP mod,TRPV1 potentiator,Menin-MLL FL inh
COC(=O)c1c(CSc2ccc(C)c(C)c2)noc1C(=O)NCc1ccc(OC)cc1,6%,nt,-12,-6%,-0.8%,-11,0.3
COC(=O)C1(NC(=O)NC23CC4CC(CC(C4)C2)C3)CCCCC1,16%,-36%[inhibitor],-7,-1%,-0.8%,-8,3.8
O=C(CN(Cc1ccccc1Cl)C(=O)Cn1nnc(-c2cccs2)n1)NCC1CCCO1 (stereo unspecified),6%,-14%,-6,-6%,-4.1%,-1,1.9
COc1cc(C2NC(=O)NC(O)(C(F)(F)F)C2C(=O)c2ccc(Cl)cc2)ccc1O (stereo unspecified),18%,-28%,6,-2%,-0.7%,-2,1.3
